# miR-21 FLuc: qHTS Assay for Modulators of miRNAs and/orActivators of miR-21 | HeLa miR-21 FLuc reporter, luciferase, 48 h | Potency, µM (highest dose often 38.3 µM), inactives show top-dose reporter change, positive = more light | 340,000 tested, under 10 active | AID 2288, 2010; active = well fitted rising curve with a large enough effect; inconclusive = small, poorly fitted or top-dose-only effect; inactive = no such curve, though single readings can be large or run the other way;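 note: % of control where 0% means no effect; miR-21 action dims this reporter so a rising signal means less miR-21 action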
#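 HeLa miR-21-FLuc reporter line, endogenous miR-21; 2000 cells/well in DMEM/10% FBS; compound titration up to ~40uM final, 48 h, 37 degree Celsius; luciferase detection reagent, 15 min lysis, CCD luminescence.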
# Starred values were filed as active, the others as inactive; ? = inconclusive. An excerpt; rates above refer to the full screens.
miR-21 FLuc	smiles
1.1%	CCOCCn1cnc2sc(C(=O)Nc3ccccc3C(=O)OC)c(C)c2c1=O
-0.4%	CCN(CC)C(=O)Cn1c(=O)n(CCCCCC(=O)NCc2ccccc2)c(=O)c2sccc21
4.3%	Fc1ccc2c(c1)NC(c1ccncc1)=NC(c1cccs1)=N2
4.3%	O=C(NCc1cccs1)c1ccc2c(c1)sc1nc(-c3ccccc3)cn12
-0.5%	Cc1cccc(N2CCN(Cc3cc(=O)oc4cc(C)ccc34)CC2C)c1 (centres undefined)
-1.0%	CCc1cccc(NC(=O)CSc2ncc3c(n2)-c2ccccc2N(Cc2ccccc2C)S3(=O)=O)c1
0.0%	Cc1cc(NS(=O)(=O)c2ccc(NC(=O)c3ccccc3C)cc2)nc(C)n1
-3.0%	Cn1c(C(=O)NCc2ccc(F)cc2)cc2c(=O)n(C)c3ccccc3c21
0.6%	Cc1cc(C)c2c(=O)cc(C(=O)Nc3c(C)n(C)n(-c4ccccc4)c3=O)oc2c1
0.3%	CC1=C(C(=O)Nc2ccc(C)cc2C)C(c2cc(Br)ccc2F)n2ncc(C(=O)Nc3ccc(C)cc3)c2N1 (centres undefined)
-1.9%	CCOc1ccc(-n2c(-c3ccc(Br)cc3)cc3c2CC(C)(C)CC3=O)cc1
-9.3%	CCCCNC(=O)c1cc(-c2cccnc2)nc2ccc(S(=O)(=O)NCCCC)cc12

# Other structures follow.
miR-21 FLuc	smiles
-7.3%	COc1ccc(CCNc2ncnc3c2cnn3-c2ccc(C)cc2)cc1
14.4%	CCCS(=O)(=O)c1c(Nc2ccccc2C)sc(C(=O)c2ccccc2)c1N
0.6%	CCOc1ccc(Nc2oc(/C=C/c3ccc(OC)c(OC)c3)nc2C#N)cc1
-4.1%	Cn1c(SCc2ccccc2Cl)nc(=O)c2c1NC(=O)CC2c1cc(F)ccc1F (centres undefined)
-1.2%	COC(=O)c1ccc(-n2nnc(-c3nc(-c4ccccc4Cl)no3)c2C)cc1
-2.7%	O=C(NCc1ccccc1)C(=O)NCC(c1cccnc1)N1CCN(c2ccccc2)CC1 (centres undefined)
-2.6%	O=C(NCC12CC3CC(CC(C3)C1)C2)c1cc2nc(-c3ccc(Cl)cc3)cc(C(F)(F)F)n2n1
-19.6%	COc1ccc(C2=Nc3ccc(C)cc3NC(c3ccc(Cl)cc3)=N2)cc1
-6.8%	CCCCOC(=O)/C(C#N)=C/c1ccc(-c2ccc(Br)cc2)o1
-12.0%	Cc1ccc(Cn2c(=O)n(CCCCC(=O)NCCc3ccc(Cl)cc3)c(=O)c3ccccc32)cc1
3.1%	Cc1ccc(/C=C/c2onc(C)c2S(=O)(=O)N2CCC(C(=O)Nc3ccc(OC(F)(F)F)cc3)CC2)cc1
24.4%	Cc1cc(C)cc(Nc2cc(C(=O)NCc3ccccc3)c3ccccc3n2)c1

# Three compounds from above, ordered by SMILES length, high to low:
miR-21 FLuc	smiles
0.6%	CCOc1ccc(Nc2oc(/C=C/c3ccc(OC)c(OC)c3)nc2C#N)cc1
-19.6%	COc1ccc(C2=Nc3ccc(C)cc3NC(c3ccc(Cl)cc3)=N2)cc1
-6.8%	CCCCOC(=O)/C(C#N)=C/c1ccc(-c2ccc(Br)cc2)o1

# The list goes on:
miR-21 FLuc	smiles
-1.4%	N#C/C(=C\c1ccc(Cl)cc1)c1nc2ccccc2[nH]1
-4.5%	CCC(C(=O)OC)n1cnc2c(cnn2-c2ccc(F)cc2)c1=O (centres undefined)
-2.4%	CCOC(=O)c1nnc2c(-c3ccc(Cl)cc3)c(C)nn2c1N
0.6%	Cc1ccc(NS(=O)(=O)c2ccc3c(c2)CCN3C(=O)C2CC2)c(C)c1
-4.3%	COc1ccc(Nc2ncc3c(n2)CCN(Cc2cc(Br)cs2)C3)c(OC)c1
-19.0%	O=C(NCCc1ccccc1)c1ccc(CSc2nc3ccncc3n2Cc2ccccc2)cc1
7.3%	O=C(NCCc1ccc(Cl)cc1)c1ccc(CS(=O)(=O)Cc2ccc(F)cc2)o1
-7.1%	CCOc1ccccc1CNC(=O)c1cc2c(=O)n(Cc3cccnc3)ccc2nc1C
-0.1%	CC(=O)c1ccc(N2CCN(S(=O)(=O)c3ccc(-c4coc(C)n4)cc3)CC2)cc1
-11.3%	CCOc1ccc(CNC(=O)c2[nH]c3ccccc3c2Sc2ccc(C)cc2)cc1
-1.2%	CC1CCCN(Cc2cn3c(-c4cccc(Br)c4)nnc3s2)C1 (centres undefined)
-0.7%	Cc1ccc(-n2nc(C)c(C(=O)NCCCN3CCN(c4ccc(F)cc4)CC3)c2-n2cccc2)cc1

# (more compounds)
miR-21 FLuc	smiles
3.5%	Cc1ccc(C2C=C(c3ccc(Cl)cc3)Nc3nc(NC(=O)CCC(=O)O)nn32)cc1 (centres undefined)
-3.4%	CCOc1ccc(C(=O)N2CCN(CCc3ccccn3)CC2)cc1
?	CCOc1ccc(C(=O)N(Cc2nc(-c3cccc(C)c3)no2)C(C)C)cc1
23.4%	CCOC(=O)C1CCCN(C(=O)c2cc3c(Cl)nc4ccccc4c3s2)C1 (centres undefined)
-15.0%	Fc1ccc(-c2nnc(CN3CCN(c4ccccn4)CC3)o2)cc1
?	CCn1c(=O)cc(SCC(=O)N2CCN(c3cc(C)ccc3C)CC2)c2ccccc21
-1.9%	CCN(CC)c1ccc(C(=O)N2CCc3c([nH]c4ccccc34)C2c2ccc(F)cc2)cc1 (centres undefined)
2.6%	COc1ccc(NC(=O)CSc2nc(-c3ccccc3)cc(-c3cc(OC)c(OC)c(OC)c3)c2C#N)c(OC)c1
-3.5%	Cc1c(C)n(Cc2ccc(F)cc2)c2ccc(C(=O)N3CCN(c4ccc(F)cc4)CC3)cc12
-6.5%	CCOc1ccccc1CNCc1c(C(=O)O)n(Cc2ccc(F)cc2)c2cc(C)ccc12
1.8%	CN1CCN(CCNC(=O)c2cnn(-c3ccc(F)cc3)c2C2CCN(C(=O)OC(C)(C)C)CC2)CC1
2.0%	COc1ccc(NC(=O)CSc2oc(-c3ccc(C)cc3)nc2S(=O)(=O)c2ccc(C)cc2)c(OC)c1

# Later entries
miR-21 FLuc	smiles
1.8%	COc1ccc(NC(=O)COCc2cc(-c3ccc4c(c3)OCO4)on2)cc1
-22.5%	Cc1ccc(C2=NC(c3ccc(F)cc3)=Nc3ccc(C)cc3N2)cc1
-6.0%	COc1ccc(-c2nnc(SCCOc3ccccc3C)o2)cc1OC
1.5%	Cc1oc(-c2cccc(Br)c2)nc1Cn1c(SCc2cccc(F)c2)nc2cccnc21
-0.6%	CCOc1ccc(/C=C(\C#N)C(=O)Nc2sc3c(c2C(=O)OC)C(C(=O)OC)CC3)cc1OC (centres undefined)
7.6%	O=C(NCc1ccc(Cl)cc1)c1ccc(CSCc2cccc(Cl)c2)o1
25.3%	O=C(COCc1cc(-c2ccco2)on1)Nc1cc(Cl)ccc1O
-3.1%	Cc1cccc(C)c1N1CC(c2nc3ccccc3n2CC(=O)OC(C)C)CC1=O (centres undefined)
0.6%	Cc1nn2c(=O)cc(COC(=O)c3cccc(NC(=O)c4cccs4)c3)nc2s1
?	CCCCOc1ccc(C(=O)Nc2ccc3c(c2)CCCN3C(=O)c2cccs2)cc1
-8.6%	COc1cc(C(=O)Nc2ccc(OCc3cc(=O)n4cccc(C)c4n3)cc2)cc(OC)c1OC
-13.3%	Cc1cc(C)nc(-n2nc(C)c3c2NC(=O)CC3c2cccc(O)c2)n1 (centres undefined)

# The final 2 entries of the section before are carried over, then new ones follow.
miR-21 FLuc	smiles
-8.6%	COc1cc(C(=O)Nc2ccc(OCc3cc(=O)n4cccc(C)c4n3)cc2)cc(OC)c1OC
-13.3%	Cc1cc(C)nc(-n2nc(C)c3c2NC(=O)CC3c2cccc(O)c2)n1 (centres undefined)
?	Cc1ccc(Cl)cc1-n1ncc2c(N3CCN(Cc4ccccc4)CC3)ncnc21
6.9%	COc1ccc(NC(=O)CC2C(=O)N(c3ccc(F)cc3)C(=O)N2Cc2ccc3c(c2)OCO3)cc1 (centres undefined)
-4.5%	CCC(CC)C(=O)Nc1ccc(OCc2cc(=O)n3c4c(sc3n2)CCCC4)cc1
-7.2%	COc1ccc(N2CCN(C(=O)CSc3nc(-c4ccccc4)no3)CC2)cc1
-0.8%	CNS(=O)(=O)c1cn(CC(=O)N2CCN(c3cccc(C)c3C)CC2)cc1S(=O)(=O)NC
16.2%	CCCOc1ccc(CNC(=O)CN2C(=O)c3cccnc3Oc3ccc(C)cc32)cc1
?	CC(=O)C1=C(c2ccc(Cl)c(Cl)c2)N(C(C)=O)n2c(C)nnc2S1
1.0%	CCc1nn2c(=O)cc(COC(=O)CNC(=O)c3ccccc3)nc2s1
-47.9%	COc1ccc(CC(=O)Nc2c(C(=O)Nc3ccc(F)cc3)oc3ccccc23)cc1OC
5.7%	CCCS(=O)(=O)N1CCC(n2c(C)nc3cccnc32)CC1
27.3%	CC(C)Oc1ccc(CN2CCc3nc(Nc4ccc5c(c4)OCCO5)ncc3C2)cc1
-3.7%	N#C/C(=C\c1ccc(Br)cc1)c1nc(-c2cc3cc(Br)ccc3oc2=O)cs1

# Part of the list above, as labelled records:
Structure: N#C/C(=C\c1ccc(Br)cc1)c1nc(-c2cc3cc(Br)ccc3oc2=O)cs1
- miR-21 FLuc: -3.7%

Structure: CC(C)Oc1ccc(CN2CCc3nc(Nc4ccc5c(c4)OCCO5)ncc3C2)cc1
- miR-21 FLuc: 27.3%

Structure: COc1ccc(NC(=O)CC2C(=O)N(c3ccc(F)cc3)C(=O)N2Cc2ccc3c(c2)OCO3)cc1 (centres undefined)
- miR-21 FLuc: 6.9%

Structure: COc1ccc(N2CCN(C(=O)CSc3nc(-c4ccccc4)no3)CC2)cc1
- miR-21 FLuc: -7.2%

# Next records.
miR-21 FLuc	smiles
0.7%	O=C(NCCCN1CCN(c2ccc(F)cc2)CC1)c1cc2c(Cl)nc3ccccc3c2s1
-12.6%	CC(=O)Nc1nonc1-c1nnc(SCc2ccccc2C)n1C
-2.1%	Cc1c(C(=O)N(Cc2cccc(F)c2)C2CCS(=O)(=O)C2)oc2cc(Br)ccc12 (centres undefined)
-18.7%	COCCCNC(=O)C1CCN(c2nc3ccc(Cl)cc3[nH]2)CC1
-3.8%	O=C(CCCn1c(=O)c2ccccc2n(Cc2ccc(F)cc2Cl)c1=O)NCCc1ccc(Cl)cc1
24.7%	COc1ccccc1N1CCN(CCCNC(=O)c2cnn(-c3cccc(Cl)c3)c2C2CCN(C(=O)OC(C)(C)C)CC2)CC1
-10.8%	CCc1ccc(NC(=O)CSc2nccn2-c2ccc(F)cc2)cc1
?	CCOC(=O)c1cc(C)n(CC2CCC(C(=O)Nc3ccc(Cl)cc3)CC2)c1C (centres undefined)
-12.2%	COC(=O)c1ccc(NC(=O)c2c(NCc3cccc(F)c3)sc3c2CCCC3)cc1
-2.4%	Cc1ccc(C(=O)N2CCCCC2CCN2CCCCC2)cc1 (centres undefined)
-2.8%	Cc1ccc(CN2C(=O)c3ccccc3S(=O)(=O)c3ccc(C(=O)OCC4CCCO4)cc32)cc1 (centres undefined)
-3.1%	COc1ccc(-c2nc3c(c(SCC(=O)Nc4ccc(C(=O)O)cc4)n2)Cc2ccccc2O3)cc1

# (list continues)
miR-21 FLuc	smiles
-2.7%	Cc1nc2sc(C)c(C)n2c(=O)c1S(=O)(=O)NCCc1ccc(Cl)cc1
16.2%	CCc1ccc(NC(=O)c2ccc3c(c2)c(C)c(C)n3Cc2ccccc2)cc1
-1.6%	O=C(NCc1cccc(F)c1)C1CCCN(C(=O)N2CCOc3ccccc32)C1 (centres undefined)
-4.4%	CCN1CCN(C(c2ccc(SC)cc2)c2c(O)cc(C)n(Cc3ccco3)c2=O)CC1 (centres undefined)
?	CCOc1ccc(-c2nnc(SCC(=O)NCc3ccccc3)nc2-c2ccc(OCC)c(OC)c2)cc1OC
4.7%	CCOc1ccc(CCNC(=O)c2csc3c2CCCCC3)cc1
-6.2%	CCc1ccc(C(=O)c2cn(CC(=O)NCCc3ccccc3)c3nc(C)ccc3c2=O)cc1
?	CCCOCc1cc(CN2CCN(c3ccccc3OC)CC2)c(O)c2ncccc12
-14.4%	O=C1Nc2ccccc2Oc2cc(Oc3cccc(Cl)c3)ccc21
1.7%	CCN(CC)CCCNC(=O)c1c2c(nc3ccccc13)C(=O)N(C1CCCCC1)C2
-3.1%	CCOc1ccc(NC(=O)N(Cc2ccc(CC)cc2)Cc2cn[nH]c2-c2ccc(OC)cc2)cc1
1.4%	COc1ccc(NCc2cc3cc4c(cc3n(CC(=O)Nc3ccc(C)c(C)c3)c2=O)OCO4)cc1

# (next part)
miR-21 FLuc	smiles
-0.4%	Cc1ccccc1Cn1nc(C)c(NC(=O)c2cc(-c3ccc(F)cc3)on2)c1C
8.2%	O=C(COc1ccc(Br)cc1Cl)Nc1ncn[nH]1
-8.4%	CCc1ccc(NC(=O)C2CCC(CNS(=O)(=O)c3ccc4c(c3)C(C)(C)C(=O)N4C)CC2)cc1 (centres undefined)
?	Cc1ccccc1NS(=O)(=O)c1ccc(Br)s1
?	O=C(Nc1ccccc1F)c1ccc2c(Cl)c3c(nc2c1)CCC3
-3.5%	CCc1nn2c(=O)cc(COC(=O)c3cccc(NC(=O)c4ccccc4C)c3)nc2s1
-71.6%	Cc1cccc(OCCn2nnc3sc4c(c3c2=O)CCCC4)c1
-3.3%	Cc1ccc(N2CCN(S(=O)(=O)c3ccc(Cl)c4ccccc34)CC2)c(C)c1
10.1%	Cc1ccc(S(=O)(=O)N2CCN(Cc3noc(CCC(=O)N4CCCCC4)n3)CC2)c(C)c1
0.9%	O=C(NCc1ccc2c(c1)OCO2)c1ccc2c(c1)N(Cc1ccc(F)cc1)C(=O)c1ccccc1S2=O (centres undefined)
1.0%	COc1cc2c(=O)c(C(=O)c3ccc(F)cc3)cn(Cc3cccc(F)c3)c2cc1OC
1.1%	Cc1ccc2oc(C(=O)Nc3c(C(=O)c4ccc(C)c(F)c4)oc4ccccc34)cc(=O)c2c1
-1.2%	CCOC(=O)c1sc(NC(=O)c2nc3nc(C)cc(C(F)F)n3n2)c(C(=O)OC)c1C

# Compound activity from PubChem.
